Source: PubChem BioAssay
PrP UTR inh: inhibition of PrP 5' UTR reporter expression. cell-based PrP 5' UTR mRNA reporter, plate reader. inhibition, % (test concentration not listed). hit rate 0.35% among 340,000;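 active means every replicate at 50% or more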;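 further: 0 = median of the neutral control wells; tested in H4 reporter cells; numbers are from one replicate; inactives centre near -14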
BJeLR lethal: MLPCN primary cell-based screen for lethality selective to Ras in HRASV12 cells | BJeLR (HRASV12) viability, CellTiter-Glo ATP luminescence, 48 h; reference of the scale not given here | inhibition, % (test concentration not listed) | hit rate 0.17% among 300,000 | AID 1554, 2009;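 active means replicate mean above 50%; inconclusive means above 50% but judged a plate artefact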;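 further: 50 nL library stock added to about 25 µL; numbers are from one replicate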
Mtb hypoxia inh: PubChem AID 1159583. M. tuberculosis hypoxia-regulated fluorescent reporter, fluorescence. fluorescence inhibition, % (test concentration not listed). hit rate 0.1% among 300,000;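 active means 35 to 45% if threefold the growth effect, above 45% if 1.5-fold the growth effect; inactive means the rest, general growth blockers included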;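 further: wells of about 50 µL received 100 nL stock; 0% = vehicle wells and 100% = reference inhibitor wells; whole bacteria with a GFP reporter of the hypoxia response; strong numbers were not always called active; many hits fall short of the cut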
Autofluor counter: flagged as autofluorescent in microsphere protease counterscreen; compound autofluorescence counterscreen, microsphere flow cytometry; stronger effect = higher value; fluorescence intensity (concentration not given with the values); hit rate 3.1% among 360,000; AID 624483;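 active means at least 3 SD above the mean of all compounds, about 16000 in these data; inconclusive means too few beads counted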;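 further: 100 nL of 1 mM stock went into each well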
RN4220 kill: growth inhibition of S. aureus RN4220, primary screen, OD600. 16 h. inhibition, % (test concentration not listed). hit rate 0.33% among 330,000. AID 1259311, 2017;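 active means z-score of -3 or lower and OD600 up to 0.18 on both plates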;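 further: plate controls were untreated cells for no effect and reference antibiotic for full effect; stock transfer was 100 nL into about 80 µL; one replicate is shown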
ugtP null kill: growth inhibition of ugtP-null S. aureus, primary screen, RN4220 ugtP deletion, OD600 | 16 h; some inactives read as strong as hits | AID 1259309, 2017 | growth inhibition, % (concentration not given with the values) | hit rate 0.54% among 330,000;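 active means z-score under -3 and OD600 up to 0.15 on both plates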;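 further: plate controls were untreated wells for no effect and antibiotic for full effect; wells of about 80 µL received 100 nL stock; the first replicate is given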
Mtb hypoxia inh growth: also measured in Mtb hypoxia inh; calls as there; growth inhibition, %; measured here: M. tuberculosis growth (absorbance);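 0% = vehicle and 100% = reference antibiotic; read after six days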
* hit, by the source's call; ? = inconclusive; . = no result given.

SMILES	PrP UTR inh	BJeLR lethal	Mtb hypoxia inh	Mtb hypoxia inh growth	Autofluor counter	RN4220 kill	ugtP null kill
CC(=O)c1sc(NC(=O)C2CCN(C(=O)c3ccccc3C)CC2)nc1-c1ccccc1	-4	-9	-5	11	5729	5.9	5
COc1ccc(NC(=S)NN=Cc2cccn2Cc2ccc(F)cc2)cc1	.	.	-10	0	.	14	5
O=C1c2cccc(OCC(=O)N3CCCc4ccccc43)c2CCN1Cc1ccccc1	-19	-7	-9	9	2010	-3.6	0
O=C(COC(=O)CCSc1ccccc1Cl)NCc1ccco1	-25	-9	-7	0	4431	-2.3	-8
O=C(Nc1cccc(Cl)c1)c1cnccn1	-5	3	10	4	3492	-0.6	4
Cc1ccc(NC(=O)CN2C(=O)NC3(CCC(C)CC3)C2=O)c(Cl)c1 (configuration not stated)	-37	13	-2	5	10870	1.6	-3
COc1ccc(CCN2C(=O)NC(NS(=O)(=O)c3ccc(N)cc3)(C(F)(F)F)C2=O)cc1OC (configuration not stated)	-33	-1	7	1	2045	1.3	2
CCc1ccc(C(=O)c2oc3nc(C)cc(C)c3c2N)cc1	-9	2	-3	5	20259*	6.4	-10
Cn1c(N)c(C(=O)COC(=O)c2ccc(-c3ccccc3)cc2)c(=O)n(C)c1=O	-9	.	14	7	3940	5.8	14
O=C(Cc1ccc([N+](=O)[O-])cc1)N1CCCCCC1	-28	5	11	10	2461	9.9	12
Cc1cc(F)ccc1NCc1cccnc1	-21	2	4	2	3740	2.2	-6
COc1cc(C=Nc2cccc([N+](=O)[O-])c2C)ccc1OC(C)=O	-18	3	8	-2	1886	-1.4	-1
CC(C)(C)SCCNC(=O)/C=C/c1ccc([N+](=O)[O-])cc1	-19	-5	6	5	2108	-4.2	8
Cc1cccc(NC(=S)NN=Cc2ccc3c(c2)OCO3)c1	.	.	15	9	.	0.1	34
Cc1ccc(NC(=O)c2ccc(F)c(S(=O)(=O)N3CCOCC3)c2)cc1F	7	-14	3	4	8417	-5.0	-20
CCCCOc1ccc(C(=O)N2CC(C)OC(C)C2)cc1 (configuration not stated)	-5	2	9	-1	7710	4.8	12
Cc1cccc(C)c1NC(=O)CSc1nnc(-c2ccoc2C)n1C	-8	4	.	.	3004	4.1	2
Cc1cc(C)c[n+](-c2nc3ccccc3nc2[N-]S(=O)(=O)c2ccc(Cl)cc2)c1	-22	-7	-3	0	2212	2.1	4
CCOC(=O)c1ccc(NC(=O)CCS(=O)(=O)c2ccc(Br)s2)cc1	-7	-2	3	1	8435	-12	13
Cc1cc(C)n2ncc(C(=O)NCc3ccc(Cl)cc3)c2n1	5	-4	.	.	3278	4.9	5
CC(C)C(=O)c1cn(Cc2ccc(C#N)cc2)c2ccccc12	2	-1	1	-3	3429	3.9	-2
COc1ccc(/C=C2\CCC(C3CCCC3)C2=O)cc1 (configuration not stated)	-81	-2	15	4	3736	2.4	5
COc1ccc2c(c1)CC/C(=C\C=C\c1ccccc1)C2=O	-34	-8	18	8	7470	15	14
CCOc1ccc(NC(=O)CC2C(=O)N(c3ccccc3)C(=O)N2Cc2ccco2)cc1 (configuration not stated)	-7	-12	-1	7	?	4.2	3

Random excerpt: two compounds from above
SMILES	PrP UTR inh	BJeLR lethal	Mtb hypoxia inh	Mtb hypoxia inh growth	Autofluor counter	RN4220 kill	ugtP null kill
Cn1c(N)c(C(=O)COC(=O)c2ccc(-c3ccccc3)cc2)c(=O)n(C)c1=O	-9	.	14	7	3940	5.8	14
Cc1ccc(NC(=O)c2ccc(F)c(S(=O)(=O)N3CCOCC3)c2)cc1F	7	-14	3	4	8417	-5.0	-20

(listing goes on)
SMILES	PrP UTR inh	BJeLR lethal	Mtb hypoxia inh	Mtb hypoxia inh growth	Autofluor counter	RN4220 kill	ugtP null kill
CCOc1ccc(CN2CCNC(=O)C2CC(=O)NC2CCCCCC2)cc1 (configuration not stated)	-10	-5	4	7	5616	3.9	-1
CCc1ccccc1NC(=O)Cn1nnc(C(=O)NCc2cccs2)c1N	-19	20	7	0	2524	3.1	1
Cc1cc(C)c(NC(=O)CN2CCN(C)CC2)c(C)c1	-29	7	.	.	4630	5.6	10
Cc1ccc(S(=O)(=O)Nc2c(C)cc(C)nc2Cl)cc1	.	7	4	-4	3339	1.4	1
COc1cc(/C=N/NC(=O)c2ccccc2)ccc1OS(=O)(=O)c1ccccc1	-14	2	.	.	2197	.	.
COc1ccc2nc(Nc3nc(CSc4nnc(C)s4)cc(=O)[nH]3)nc(C)c2c1	.	-4	10	2	.	6.2	-1
COc1cccc(C(=O)Nn2c(-c3cccs3)nc3ccccc3c2=O)c1OC	-20	3	-16	1	2552	-4.2	-3
CC[N+](CC)(CC)CCC(O)(c1ccccc1)C1CCCCC1 (configuration not stated)	-9	.	5	4	5473	8.3	4
COc1ccc(CN(Cc2ccco2)S(=O)(=O)c2ccc(S(=O)(=O)N3CCCC3)cc2)cc1	-12	-1	-2	0	23577*	3.6	-1
COc1ccc(N2CCN(CC(O)COCCOc3ccc(Br)cc3)CC2)cc1 (configuration not stated)	-1	-5	9	10	2389	1.7	4
CCc1noc(C)c1C(=O)OCC(=O)N(CC)c1c(N)n(Cc2ccccc2)c(=O)[nH]c1=O	-15	8	-16	6	6583	-0.8	-1
Cc1ccc2c(c1)c1c3n2CCN(C(=O)C2CC2)C3CCC1 (configuration not stated)	-15	0	2	7	4443	-0.2	7
CS(=O)(=O)NCCSc1cc(C(F)(F)F)nc2ccccc12	-20	-7	2	1	3486	1.7	6
COC(=O)C1=C(c2ccc(S(C)(=O)=O)cc2)C[C@@H]2CC[C@H]1N2C(=O)NCc1ccc(F)cc1	-2	-12	.	.	3520	.	.
COc1ccccc1NS(=O)(=O)c1ccc(/C=C/C(=O)N2CCN(C(C)=O)CC2)cc1	-20	.	6	-4	2889	3.2	4
CC(C)(C)C1=C(C#N)C(c2cc3c(cc2Br)OCO3)C(C#N)=C(N)O1 (configuration not stated)	-19	-1	11	4	2318	7.3	-5
CCOC(=O)N(C)c1ccc(C(O)(C(F)(F)F)C(F)(F)F)cc1	-25	9	.	.	2348	5.8	0
CC(NC(=O)CNC(=O)OCc1ccccc1)C(=O)N1CC(O)CC1C(=O)OCc1ccccc1 (configuration not stated)	-16	-10	.	.	2461	3.7	0
CCN(C[C@H]1N[C@@](CC)(C(=O)OC)[C@H]2C(=O)N(C)C(=O)[C@@H]12)C(=O)Nc1ccc(Cl)cc1	6	.	-4	12	3489	3.3	1
Cc1ccc(C(=O)Cc2ccccc2)cc1	-77	.	-3	21	4071	0.3	0
Cc1c(N)cccc1-n1cccc1	-19	0	-3	5	4122	0.0	0
O=S(=O)(/N=C(/Nc1ccccc1)c1ccccc1O)c1ccccc1	-21	2	9	6	3358	5.1	8
Cc1cc(OCCN2CCCC2)ccc1[N+](=O)[O-]	-20	-9	-4	4	2479	-5.7	1
COc1cccc(NC(=S)NC(=O)c2c(Cl)c(C)nn2C)c1	-36	-8	-3	-1	2024	8.6	4

Compound profiles, as listed above. Values in the order: PrP UTR inh	BJeLR lethal	Mtb hypoxia inh	Mtb hypoxia inh growth	Autofluor counter	RN4220 kill	ugtP null kill
CCN(C[C@H]1N[C@@](CC)(C(=O)OC)[C@H]2C(=O)N(C)C(=O)[C@@H]12)C(=O)Nc1ccc(Cl)cc1 reads 6	.	-4	12	3489	3.3	1
CC(C)C(=O)c1cn(Cc2ccc(C#N)cc2)c2ccccc12 reads 2	-1	1	-3	3429	3.9	-2

The list continues.
SMILES	PrP UTR inh	BJeLR lethal	Mtb hypoxia inh	Mtb hypoxia inh growth	Autofluor counter	RN4220 kill	ugtP null kill
CCOC(=O)C1CCN(C(=O)CC(C)S(=O)(=O)c2ccc3c(c2)NC(=O)CO3)CC1 (configuration not stated)	-11	-13	9	7	5393	2.8	6
Cc1ccc(NC(=O)c2ccc3c(=O)n4c(nc3c2)CCC4)cc1F	-93	.	.	.	3063	-1.3	-2
CC1=C[C@@H](C)[C@@H](c2ccccc2)OC1=O	-25	-4	.	.	4035	.	.
COC(=O)CCNC(=O)c1ccc2[nH]c(C)c(C)c2c1	-8	-4	.	.	4137	5.3	5
CCOc1ccc(S(=O)(=O)n2c([N+](=O)[O-])cnc2C)c(C)c1C	-23	-11	7	16	3529	4.7	10
COc1cccc(CN2CCC(C(=O)Nc3ccc(Oc4cccnc4)cc3)CC2)c1	-11	1	6	9	6425	-4.8	-8
O=C(NCC1CC1)C1(S(=O)(=O)c2ccccc2)CC=CC1	-18	-10	4	8	4527	4.8	3
COCCNC(=O)c1sc2nc(-c3ccccc3)cn2c1C	-36	-3	15	5	8658	2.8	-13
O=C(c1ccc(-c2ccccc2)cc1)c1ccccc1C(=O)N1CCOCC1	-24	-4	1	6	22303*	3.0	8
Cc1cccc(-c2c3c(=O)n(C)c(=O)n(C)c3cn2C(C)C)c1	0	-17	2	9	8246	0.3	-1
O=c1[nH]snc1N1CCOCC1	-24	.	9	9	3997	4.3	10
CCC(=O)N(CCc1ccccc1)Cc1cc2cc(C)ccc2[nH]c1=O	4	7	4	-1	3094	4.1	10
Cc1cc(C(=O)C(C)OC(=O)c2ccc(NC(=O)CC#N)cc2)c(C)n1-c1ccc(OC(F)F)cc1 (configuration not stated)	-16	.	2	-3	3165	4.6	6
Cc1c(C(=O)N2CCC3(CC2)OCCO3)sc2ncnc(N(C)c3ccccc3)c12	-12	3	.	.	2739	-0.2	-1
CCOC(=O)CSc1ncnc2c(C(=O)OCC)c3n(c12)CCC3	-2	3	10	2	2470	3.8	-4
COc1cccc(C2NC(c3cccc(OC)c3O)C(C)C(=O)C2C)c1O (configuration not stated)	-10	-7	4	8	10952	40	38
Cn1nc(-c2ccc(N3CCN(CCO)CC3)c([N+](=O)[O-])c2)c2ccccc2c1=O	-19	9	5	10	2545	-0.1	-2
CC1=CC(=C(C#N)c2nc3ccccc3s2)C=C(C)N1c1ccc(F)cc1F	-7	8	14	0	2560	12	4
Cc1cc(C)c2c(N)c(C(=O)c3ccc(Br)cc3)oc2n1	-18	16	-1	10	5722	93*	81
COC(=O)C(NC(=O)c1ccc(C)cc1)(Nc1cccc(C)n1)C(F)(F)F (configuration not stated)	-24	1	3	8	3551	8.1	-9
CCc1ccc(CN2CCC(n3nccc3NC(=O)c3cccc(F)c3)CC2)cc1	-7	-1	14	5	5497	0.6	-3
Cc1ccc(NC(=O)c2ccc(Cl)c(S(=O)(=O)NCC3CCCO3)c2)c(O)c1 (configuration not stated)	9	-1	-2	-19	.	0.9	-10
O=C(CCNc1ccc(F)c(Cl)c1)c1ccco1	-10	-7	8	3	7265	1.9	1
C=CCNC(=O)c1c(CS(=O)(=O)c2ccccc2)noc1C(=O)NCc1ccccc1	-15	.	15	8	4123	8.7	1
Cc1cccnc1NC(=O)Nc1cccs1	-7	-1	-4	7	22281*	4.7	-8
Cc1c(C)n2c(SCC(=O)N3CCCC3)nnc2[nH]c1=O	-8	7	3	4	5343	4.0	9
COCCCNCC#CCOc1ccc(OC)cc1	-18	-4	16	3	2377	2.7	4
C=CCc1cc(Cl)ccc1OCCOCCN(C)C	0	.	8	12	3915	-0.4	3
COC(=O)c1ccc(COn2c(=O)c(C)[n+]([O-])c3ccccc32)cc1	-23	3	8	8	7581	3.3	5
CCOC(=O)c1cc(S(=O)(=O)N2CCN(Cc3ccccc3)CC2)cn1C	-32	3	9	6	6110	-14	-1
O=C(Cc1ccc2c(c1)OCCO2)NN=Cc1ccco1	.	.	5	5	.	2.1	7
COc1ccc(C(=O)NC(=S)Nc2ccc(CN3CCCCC3)cc2)cc1Cl	-21	6	.	.	4099	.	.
O=C(Nc1nnc(CCN2CCCCC2)s1)C1CCCCC1	20	0	.	.	2893	-3.3	-6
Cc1ccc(C(=O)NC(=S)NCc2ccccc2)cc1Br	.	-17	-6	5	3341	-1.8	27
O=C(NCc1ccco1)c1cc(-c2cccc(Cl)c2)on1	-39	-3	7	2	21505*	4.4	3
CNC(=O)C(C)Sc1ccc(S(=O)(=O)N2CCOCC2)cn1 (configuration not stated)	-25	.	10	3	4810	-0.2	1
Cc1cc2c(cc1S(=O)(=O)CCC(=O)NCc1ccccc1)OCC(=O)N2	-20	14	-2	8	5663	8.0	2
CCC(=NNC(=S)NC(C)C)c1ccc(OC)c(OC)c1	.	.	1	5	.	4.4	7
CCOC(=O)N1CCN(C(=O)c2ccc3c(Cl)c4c(nc3c2)CCCC4)CC1	-1	7	6	0	5713	2.5	-2
O=C(CSc1ncnc2c1oc1ccccc12)OCc1ccccc1	-4	-7	-2	9	11268	13	-13
